rRNA inh HTS = selective bacterial rRNA inhibition in E. coli | E. coli WT GFP vs humanized-ribosome RFP mutants, fluorescence, 24 h; hits give low values; DMSO median 0, no signal -100 | GFP signal change (wild-type ribosome), % (concentration not given with the values) | hit rate 1.6% among 350,000 | AID 720706;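 active = significant combined selectivity score with lowered wild-type GFP, culture density cut under 30%, mutant RFP and density less affected; inactive = any of these conditions unmet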; note: one replicate is shown; some compounds called inactive have numbers as strong as hits
E coli growth = blocks Escherichia coli growth | OD600 absorbance (concentration not given with the values) | hit rate 0.21% among 330,000 | OD600, 23 h; hits give low values;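 active = OD600 absorbance below the run mean of sample wells minus 3.6 SD, in any replicate, cut at about 0.56 in these data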;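 note: stock transfer was 300 nL into about 60 µL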
T cruzi inh = T. cruzi replication inhibition. T. cruzi beta-gal in NIH3T3, luminescence, 90 h. hit rate 1.4% among 300,000. inhibition, % (concentration not given with the values);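 active = mean inhibition across valid replicates above about 55%, limit read from the data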;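 note: signal also drops with host cell toxicity which is not excluded here; 0% = plate median of DMSO wells and 100% = zero luminescence signal; higher percent means less beta-gal luminescence so fewer parasites; stock transfer was 50 nL into about 50 µL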
UCH37 inh = inhibitors of human deubiquitinating enzyme UCH37; Q9Y5K5; hit rate 0.33% among 330,000; purified proteasome/UCH37, Ub-AMC cleavage fluorescence; inhibition, % (test concentration not listed);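 active = mean of two replicates above 20%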;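 note: 0% = compound-free wells with enzyme and 100% = wells lacking proteasome; stock transfer was 100 nL into about 20 µL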
Target sequence (Q9Y5K5 whole entry, looked up): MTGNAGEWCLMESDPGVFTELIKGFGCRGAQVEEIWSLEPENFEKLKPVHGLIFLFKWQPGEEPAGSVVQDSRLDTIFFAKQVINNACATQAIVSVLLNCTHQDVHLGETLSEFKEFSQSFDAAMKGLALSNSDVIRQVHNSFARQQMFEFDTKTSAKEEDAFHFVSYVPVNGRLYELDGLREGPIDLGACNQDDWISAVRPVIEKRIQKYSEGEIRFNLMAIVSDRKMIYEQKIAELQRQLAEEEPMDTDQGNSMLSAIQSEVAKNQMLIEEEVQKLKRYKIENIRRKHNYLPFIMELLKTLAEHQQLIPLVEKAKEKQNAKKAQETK
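Test system – human UCH37 enzyme supplied as purified proteasome complex · Incubation – 30 min preincubation with enzyme, 25 min cleavage at room temperature · Detection – AMC fluorescence from Ub-AMC cleavage, excitation 355 nm, emission 460 nm · Benchmarks – no-proteasome wells (full inhibition) and compound-free wells (no inhibition)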
Bfl-1 A1 inh = inhibitors of the anti-apoptotic protein A1, read as caspase activation. MEF A1-2A-BIM cells, Caspase-Glo 3/7 luminescence, 3 h; percent of clofoctol response, vehicle zero. hit rate 0.066% among 330,000. caspase activation, % (no concentration beside the values). AID 2462;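 active = over half of replicate activation scores above 10%, or exactly half above 10 with the replicate mean above 10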;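 note: wells of about 30 µL received 50 nL stock; many hits fall short of the cut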
Beta cell apopt = blocks beta cell apoptosis. hit rate 0.8% among 300,000. AID 435005. protection from apoptosis, % (concentration not given with the values). INS-1E cytokine-induced death, ATP luminescence, 48 h; percent of positive-control rescue, neutral wells zero;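 active = all replicates at 75% or more, or half of them and the mean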;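 note: 0% = cytokine-treated negative control wells and 100% = positive control rescue; higher means more ATP so stronger rescue from cytokine killing; wells of about 40 µL received 100 nL stock; the first replicate is given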
MLL AF4-AF9 inh = inhibitors of human MLL-AF4/AF9 interaction; P42568; AlphaScreen, biotin-AF4 peptide binding to FLAG-AF9; inhibition, % at 10 µM; hit rate 0.47% among 350,000; AID 651704;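 active = every replicate reaching a set inhibition limit, whatever the replicate mean, cut at about 25% in these data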;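 note: 0% = plate neutral control median and 100% = total signal loss; the record names both 10 and 1 µM as test concentration; the first replicate is given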
Target sequence (P42568 whole entry, looked up): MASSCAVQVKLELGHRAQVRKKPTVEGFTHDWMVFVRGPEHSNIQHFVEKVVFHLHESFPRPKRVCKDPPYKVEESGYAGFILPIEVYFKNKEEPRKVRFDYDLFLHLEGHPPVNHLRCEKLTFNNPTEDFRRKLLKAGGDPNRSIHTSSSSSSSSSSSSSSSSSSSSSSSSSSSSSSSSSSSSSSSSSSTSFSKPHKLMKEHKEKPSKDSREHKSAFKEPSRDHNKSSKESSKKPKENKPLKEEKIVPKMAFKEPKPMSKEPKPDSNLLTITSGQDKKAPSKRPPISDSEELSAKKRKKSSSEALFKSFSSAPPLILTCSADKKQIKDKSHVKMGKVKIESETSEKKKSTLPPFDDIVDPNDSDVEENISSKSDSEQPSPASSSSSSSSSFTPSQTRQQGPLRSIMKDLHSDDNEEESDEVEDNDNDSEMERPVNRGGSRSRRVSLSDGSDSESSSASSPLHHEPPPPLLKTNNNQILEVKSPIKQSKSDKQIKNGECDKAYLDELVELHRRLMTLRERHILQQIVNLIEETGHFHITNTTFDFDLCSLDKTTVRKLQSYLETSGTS
FGF22 binding = FGF22 (human) thermal shift binding | AID 651658 | calls only at 9.99 µM | hit rate 1.5% among 340,000 | Q9HCT0 | recombinant FGF22 thermal shift, SYPRO orange fluorescence; percent of sucrose octasulfate shift, DMSO zero;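 active = melting point raised past a set limit in the mean and every replicate; three in four hits are not shown here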
Target sequence (Q9HCT0 whole entry, looked up): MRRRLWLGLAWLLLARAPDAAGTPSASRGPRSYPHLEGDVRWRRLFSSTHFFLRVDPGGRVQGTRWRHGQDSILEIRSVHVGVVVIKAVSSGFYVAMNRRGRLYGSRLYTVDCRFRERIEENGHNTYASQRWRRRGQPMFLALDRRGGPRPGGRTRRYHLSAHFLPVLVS
rRNA inh HTS OD600 = also measured in rRNA inh HTS; calls as there; OD600 change, %; measured here: OD600 growth;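 optical density of the mix in the first replicate; 0 = DMSO median and -100 = no signal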
rRNA inh HTS RFP = recorded beside rRNA inh HTS, whose call it bears; RFP signal change, %; measured here: RFP humanized mutant strains;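 first replicate; 0 = DMSO median and -100 = no signal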
Active calls of the source: *; i = inactive; · = not tested or not shown. The list is partial; the hit share may differ from the screen's.

SMILES	rRNA inh HTS	rRNA inh HTS OD600	rRNA inh HTS RFP	E coli growth	T cruzi inh	UCH37 inh	Bfl-1 A1 inh	Beta cell apopt	MLL AF4-AF9 inh	FGF22 binding
CCOC(=O)c1sc2nc(CSc3ccccc3)[nH]c(=O)c2c1C	2	4	-1.4	0.72	1	2.6	0.1	0	1.7	i
O=C1NCCN(Cc2ccoc2)C1CC(=O)N(Cc1ccccc1)CC1CCC1 (stereo not given)	9	4	-1.1	0.7	-12	4.9	0.1	0	6.2	i
C=CCn1cn[nH]c1=S	13	9	-0.8	0.71	-7	5.9	0.3	1	-1.0	i
COc1cccc(C(=O)Oc2ccccc2/C=C\C(=O)c2cc3ccccc3o2)c1	-15	-2	0.1	0.71	16	6.5	·	·	4.0	i
CSc1ccc(CN(C)CC(=O)NCc2ccccc2)cc1	-11	-12	3.3	0.68	12	4.3	-0.2	5	-1.3	·
COc1ccccc1-c1cc(C(F)(F)F)nc(S(=O)(=O)CCCC(=O)N2CCOCC2)n1	·	·	·	0.79	-16	-9.8	6.1*	-9	·	·
O=C(CN1CCN(c2ccccc2F)CC1)NC(=O)NCc1ccccc1	27	27	1.8	0.66	-4	0.1	0.7	3	11	i
CC1(C)CC(=O)C=C(Nc2cccc(C(F)(F)F)c2)C1	0	-1	1.0	0.66	2	4.4	-0.6	0	2.7	i
O=C(NCc1cccs1)c1ccccc1F	·	·	·	0.73	-8	-5.6	0.2	-1	·	·
CC(C)(C)c1nc(SCC(=O)NCc2cccs2)c2ccccc2n1	21	13	0.0	0.65	15	1.2	1.4	-1	-3.2	i
O=C(CSc1cc(Cl)ccc1Cl)NCCN1C(=O)CSC1=O	-5	-8	2.5	0.69	·	3.4	-0.2	-3	-1.0	i
Fc1ccc(CCNC(=S)Nc2ccc(F)cc2)cc1	-17	-14	-7.8	0.63	3	-1.0	1.1	0	2.1	i
COC(C(=O)N/N=C(\C)c1ccc(C(C)(C)C)cc1)c1ccccc1 (stereo not given)	-3	7	-0.3	·	-7	·	0.6	-8	2.6	i
COc1ccc(N2C(=O)CC(N3CCN(c4ccc(S(C)(=O)=O)cc4)CC3)C2=O)cc1 (stereo not given)	·	·	·	0.66	-12	1.6	1.8	4	·	·
COc1cc(OC)c(S(=O)(=O)Nc2ccccc2C(=O)O)cc1S(=O)(=O)Nc1ccccc1C(=O)O	16	18	2.3	0.74	-9	4.0	2.0	·	-4.4	i
CC(C)CCOc1ccc(C(=O)C[N+]2(C)CCOCC2)cc1	·	·	·	·	-17	0.3	0.5	-11	·	·
CCOC(=O)c1csc(NC(=O)c2ccc(OC)c(OC)c2)n1	-3	7	19	0.71	-9	-0.8	-0.6	0	-2.6	i
Cc1ccccc1NC(=O)c1cccc(S(=O)(=O)Nc2cccc(C(=O)O)c2)c1	7	5	0.9	0.66	-11	1.7	1.3	-10	-14	i
CC(=O)Nc1ccc(S(=O)(=O)N(C)CC(=O)OCC(=O)N2CCN(C(=O)c3ccco3)CC2)cc1	12	17	-0.2	0.65	-8	4.2	0.1	1	-2.3	i
CCOC(=O)c1c(-c2ccc(C)o2)csc1NC(=O)CSc1nnc(C)s1	·	·	·	0.67	27	0.2	-0.4	-3	·	·
COc1cccc(NC(=O)Cn2c(CCC(=O)O)ccc2-c2ccccc2)c1	1	-6	0.3	0.72	1	-9.5	0.6	-5	-0.1	·
O=c1c(/C=N/O)coc2ccc(Cl)cc12	·	·	·	·	-7	·	0.8	0	-1.3	i
Brc1ccc(CNCCCSc2ncccn2)cc1	7	15	2.3	0.71	34	6.6	0.2	-4	0.8	i
O=C(N1CCOCC1)N(Cc1cccs1)C1CCCC1	·	·	·	0.75	-15	1.0	0.9	-4	·	·
COc1ccc(-c2[nH]ncc2CN(C)Cc2cc(C)[nH]n2)c(F)c1	13	22	6.4	0.67	26	1.8	-0.2	·	0.9	i
COc1ccc(/C=C2\C(=O)NCC(=O)N2Cc2ccccc2)cc1	·	·	·	0.76	0	-1.9	-0.1	-4	·	·
CC(O)[C@H]1CNC(=S)N1CCc1cccc(F)c1 (stereo not given in full)	-19	-34	-12	·	-17	-0.3	-1.0	-1	-2.7	i
CC(C)(C)C(=O)NCC12C=CC(O1)C1C(=O)N(c3ccccc3)C(=O)C12 (stereo not given)	10	5	-1.7	0.68	-4	4.2	1.4	-2	2.2	i
CCOC(=O)c1nn(-c2cccc(C)c2)cc1C(=O)c1ccccc1	·	·	·	0.68	8	-0.8	-0.3	-2	·	·
COc1ccc(C(=O)Nc2ccc(C(=O)N3CCCCC3)cc2)cc1OC	-5	7	4.3	0.69	-9	4.4	-9.1	·	-2.4	i
CC(C)(C)OC(=O)[C@H](Cc1ccccc1)NC(=O)c1nc[nH]c1C(=O)NCc1ccccc1	9	-6	24	·	5	1.3	-0.2	-3	4.6	i
CCCc1[nH]n(-c2nc3ccccc3s2)c(=O)c1C=NCCCN(CC)CC	-22*	-14*	2.4*	0.69	-22	5.3	-11	·	0.8	i
COc1ccc(CNC(=O)c2nc(S(=O)(=O)Cc3ccccc3)ncc2Cl)cc1	-16*	7.4*	3.2*	0.71	-17	3.0	1.5	15	-3.3	i
O=C(COc1ccc(Cl)cc1Cl)N(Cc1ccco1)C1CCS(=O)(=O)C1 (stereo not given)	·	·	·	0.71	-3	1.6	0.8	0	·	·
COc1ccc(-c2nnc(SCC(=O)NCCc3ccc(S(N)(=O)=O)cc3)o2)cc1OC	-6	-7	-1.5	0.69	15	0.9	0.1	6	5.5	i
CS(=O)(=O)C1=NSC2=NC(=O)/C(=C\c3cccn3-c3ccc(Cl)cc3)C(=N)N21	·	·	·	0.68	-8	16	0.1	-2	·	·
COCCN(CC(=O)NCc1ccccc1)C(=O)CCC(=O)Nc1nccs1	·	·	·	0.72	-7	5.0	0.0	-3	·	·
CC[C@]12c3[nH]c4cc(-c5ccco5)ccc4c3CCN1C(=O)[C@@H](CC(=O)NCCN1CCOCC1)C[C@@H]2C(=O)N1CCN(C(=O)c2ccco2)CC1	3	6	-2.6	0.71	·	-10.0	·	·	7.1	i
Cc1c(C(N)=O)sc2nc(-c3ccccc3)cn12	·	·	·	0.62	-10	0.6	-2.2	-4	·	·
COc1ccc(-c2ccc(/C=C3/C(=N)N4C=CSC4=NC3=O)o2)c([N+](=O)[O-])c1	·	·	·	0.69	-5	12	-1.7	3	·	·

3 entries out of the list above, sorted by the number in UCH37 inh, lowest first:
compound | UCH37 inh
CC(C)(C)OC(=O)[C@H](Cc1ccccc1)NC(=O)c1nc[nH]c1C(=O)NCc1ccccc1 | 1.3
COc1ccc(CNC(=O)c2nc(S(=O)(=O)Cc3ccccc3)ncc2Cl)cc1 | 3.0
CS(=O)(=O)C1=NSC2=NC(=O)/C(=C\c3cccn3-c3ccc(Cl)cc3)C(=N)N21 | 16

No new results follow: 3 of the compounds above.
SMILES	rRNA inh HTS	rRNA inh HTS OD600	rRNA inh HTS RFP	E coli growth	T cruzi inh	UCH37 inh	Bfl-1 A1 inh	Beta cell apopt	MLL AF4-AF9 inh	FGF22 binding
COCCN(CC(=O)NCc1ccccc1)C(=O)CCC(=O)Nc1nccs1	·	·	·	0.72	-7	5.0	0.0	-3	·	·
CC[C@]12c3[nH]c4cc(-c5ccco5)ccc4c3CCN1C(=O)[C@@H](CC(=O)NCCN1CCOCC1)C[C@@H]2C(=O)N1CCN(C(=O)c2ccco2)CC1	3	6	-2.6	0.71	·	-10.0	·	·	7.1	i
Cc1c(C(N)=O)sc2nc(-c3ccccc3)cn12	·	·	·	0.62	-10	0.6	-2.2	-4	·	·

Next records:
SMILES	rRNA inh HTS	rRNA inh HTS OD600	rRNA inh HTS RFP	E coli growth	T cruzi inh	UCH37 inh	Bfl-1 A1 inh	Beta cell apopt	MLL AF4-AF9 inh	FGF22 binding
CCN1CCN(c2ccc(S(=O)(=O)N3CCCCC3)cc2NC(=O)c2ccc([N+](=O)[O-])s2)CC1	0	-2	0.5	0.62	55*	2.7	-0.7	113*	29*	i
Cc1ccc(S(=O)(=O)N2[C@@H](c3ccc(C(C)(C)C)cc3)C(C(=O)O)=CC[C@H]2c2cccc(Cl)c2)cc1	-11	-23	3.0	0.66	·	7.6	-0.2	-3	-5.2	·
N#Cc1c(C(F)(F)F)cc(-c2cccs2)nc1SCC(=O)O	-8	-9	0.9	0.66	-5	2.0	-0.2	-10	-4.9	i
CC(=O)Nc1ccc(NC(=O)CN(c2ccc(F)cc2)S(=O)(=O)c2ccc3c(c2)OCCO3)cc1	·	·	·	0.72	-3	3.9	1.0	1	·	·
O=C(COC(=O)COc1ccccc1)NC1CCCC1	·	·	·	0.65	·	-0.1	1.7	-5	0.2	i
N#Cc1c(NC(=O)C2CC(Cl)=CCC2C(=O)O)sc2c1CCCC2 (stereo not given)	-32	-42	-12	0.63	7	0.7	-0.6	1	-0.9	i
CCCCCCNC(=O)C(C#N)c1nc2ccccc2nc1N1CCOCC1 (stereo not given)	·	·	·	0.78	21	-0.2	-0.9	5	·	·
Cc1ccccc1OCCCC(=O)Nc1nccs1	·	·	·	0.69	-7	4.9	-0.4	1	·	·
c1ccc(-c2csc3ncnc(N4CCOCC4)c23)cc1	-11	-26	-2.5	0.67	3	3.2	0.5	-4	-1.5	i
Cc1ccc(C)c(S(=O)(=O)N2CCCC2CNC(=O)C(=O)NCCc2ccco2)c1 (stereo not given)	2	-6	-0.3	0.64	-1	2.0	-0.1	-6	2.4	i
Cc1ccc(C(=O)Nc2cccc(N(C)S(C)(=O)=O)c2)cc1S(=O)(=O)Nc1ccccc1	-20*	-1.9*	2.6*	0.68	4	2.7	-0.4	-8	5.5	i
CCc1nc2ccc(C(=O)O)cc2nc1CC	·	·	·	0.73	4	4.1	-0.8	-10	·	·
COc1ccc(CCNC(=O)CSc2nc(N)c(C#N)c(-c3cccs3)c2C#N)cc1OC	·	·	·	0.73	4	-12	0.7	12	·	·
Cc1cccc(C(=O)Nc2cccc(C(=O)N/N=C/c3cccc(C)n3)c2)c1	-10	-8	1.3	·	-5	·	0.1	·	-5.7	i
O=C(COC(=O)c1c[nH]c2ccccc12)Nc1ccc(F)cc1	-7	-25	-2.9	0.67	·	2.9	-0.7	-2	-1.0	i
COc1ccccc1C(=O)NCCCNC(=O)c1cccnc1	4	15	-3.2	0.65	-3	3.5	0.6	64	-4.1	i
COCCNc1nc2ccccc2n1CC(=O)c1ccc(OC)c(OC)c1	-3	5	3.7	0.64	-1	2.2	-0.4	-5	-0.5	i
CCC(C)Nc1nc2c(c(=O)[nH]c(=O)n2C)n1CCC(C)C (stereo not given)	·	·	·	0.67	-2	-1.0	-0.7	-4	·	·
CN1CCCN(C(c2ccccc2)c2ccc(Cl)cc2)CC1 (stereo not given)	-52	-78	-9.0	0.65	27	0.2	·	·	4.1	i
Cc1cccn2cc(-c3ccc(S(=O)(=O)N4CCOCC4)cc3)nc12	·	·	·	0.71	9	i	-3.6	2	·	·

Source: PubChem BioAssay
